CtBP-E1A blk: qHTS Assay for Inhibitors of the CtBP/E1A Interaction; AID 651724, 2012; 0.49% of 340,000 active; CtBP / adenovirus E1A interaction (AlphaScreen); AlphaScreen GST-E1A/His-CtBP binding, 1536-well; hits give low values; control for the full effect not named in the record; activity change, % (test concentration not listed); in the data active means activity change below about -65%; inconclusive means about -30% to -65%; inactive means above about -30%; also: % is scaled to controls: 0 for no effect and ±100 for the full control effect; compound concentration not given in the record
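Protein mix (5X: 125 nM each GST-E1A, His-CtBP) was incubated with pinned compound 2 h at 37 deg C in dark, in 50 mM Tris pH 8.0 buffer with 300 mM NaCl. Glutathione donor and nickel acceptor beads followed; AlphaScreen signal read after 1 h.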
TRPML1 ag: qHTS for Agonists of the Human Mucolipin Transient Receptor Potential 1 (TRPML1); TRPML1-expressing cells, Ca2+ dye fluorescence, FDSS; host cell line not named in the record; reference of the full effect not given here; activation, % (no concentration beside the values); 0.12% of 410,000 active; AID 624414, 2012; in the data active = activation above about 50%; inconclusive = about 30% to 50%; inactive = below about 30%; also: 0% is about no effect; the text of the record puts the active cut at 80%
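TRPML1-DL cells, Tet-induced overnight (~16 h, 37 degrees C), loaded 45-90 min at room temperature with Ca8 no-wash calcium dye plus quencher. FDSS fluorescence: 10 s baseline, compound pin-transfer, 110 s agonist read, then EC80 54-4 (4uM final) and 110 s antagonist read.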
PINK1 expr mod: A Quantitative High throughput Screen to Identify Chemical Modulators of PINK1 Expression. PINK1 immunofluorescence, high-content cytometry, 24 h. Potency, µM (top dose mostly 76.6 µM), for the others: top-dose activation (PINK1 increase), most hits filed as activators. 0.2% of 410,000 active. AID 624263, 2012; active = well fitted activation curve with a large enough effect; inconclusive = small, poorly fitted or top-dose-only effect; inactive = flat fitted curve, though single readings scatter; cell line not stated here;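 also: potency is read from the fitted curve at half-maximal effect; % of control where 0% means no effect; nearly all actives have a fitted effect of over 65% in size; a mitochondrial uncoupler was the plate control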
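Stable cell line, 250 cells/well, 12 h attachment; compounds pinned at 5 concentrations, 24 h; CCCP control. Fixed with nuclear dye, primary antibodies 12 h at 10 degrees C, secondary plus cell stain; laser-scanning cytometer read.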
Six1-Eya2 blk: qHTS Assay for Inhibitors of the Six1/Eya2 Interaction; Homeobox protein SIX1 (Homo sapiens) + Protein phosphatase EYA2 (Homo sapiens), …; AlphaScreen GST-Six1/His-Eya2 binding, biochemical; hits give low values; control for the full effect not named in the record; activity change, % (no concentration beside the values); 0.56% of 360,000 active; AID 651725, 2012; in the data active = activity change below about -65%; inconclusive = about -30% to -65%; inactive = above about -30%; also: % is scaled to controls: 0 for no effect and ±100 for the full control effect; compound concentration not given in the record
Target sequence (O00167 whole entry, looked up): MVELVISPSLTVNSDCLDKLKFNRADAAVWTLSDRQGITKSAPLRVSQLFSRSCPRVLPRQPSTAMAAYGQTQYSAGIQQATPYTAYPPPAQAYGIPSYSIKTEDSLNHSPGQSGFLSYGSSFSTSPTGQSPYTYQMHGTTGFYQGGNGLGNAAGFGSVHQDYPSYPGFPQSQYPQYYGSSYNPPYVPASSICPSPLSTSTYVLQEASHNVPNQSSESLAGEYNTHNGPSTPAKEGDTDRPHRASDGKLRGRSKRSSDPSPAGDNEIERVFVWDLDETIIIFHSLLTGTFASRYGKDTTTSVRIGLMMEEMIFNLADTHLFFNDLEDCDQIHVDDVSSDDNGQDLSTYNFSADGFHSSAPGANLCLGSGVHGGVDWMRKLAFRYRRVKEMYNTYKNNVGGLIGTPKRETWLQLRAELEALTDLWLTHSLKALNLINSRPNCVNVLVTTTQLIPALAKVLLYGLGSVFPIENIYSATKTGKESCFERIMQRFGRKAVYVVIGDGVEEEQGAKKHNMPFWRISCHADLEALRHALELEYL
Target sequence (Q15475 whole entry, looked up): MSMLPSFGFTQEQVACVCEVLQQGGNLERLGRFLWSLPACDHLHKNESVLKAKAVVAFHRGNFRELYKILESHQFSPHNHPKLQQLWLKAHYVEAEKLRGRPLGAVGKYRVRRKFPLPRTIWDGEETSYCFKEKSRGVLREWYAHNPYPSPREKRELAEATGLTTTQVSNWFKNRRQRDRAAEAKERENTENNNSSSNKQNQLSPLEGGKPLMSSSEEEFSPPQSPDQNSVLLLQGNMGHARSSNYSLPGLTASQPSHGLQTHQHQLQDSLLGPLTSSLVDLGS
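GST-Six1 + His-Eya2 (5X stock: 250/500 nM); Tris pH 8.0, 300 mM NaCl, 0.05% BSA, 0.02% Tween 20; GSH donor/Ni acceptor beads; 1 h 37 °C dark; AlphaScreen readout.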
TRPML1 inh: qHTS for Inhibitors of the Human Mucolipin Transient Receptor Potential 1 (TRPML1); AID 624415, 2012; activity change, negative = inhibition, % (test concentration not listed); TRPML1-inducible cells, Ca2+ dye fluorescence, FDSS; hits give low values; inhibition of EC80 agonist-evoked calcium signal; 0.02% of 390,000 active; in the data active means activity change below about -50%; inconclusive means about -30% to -50%; inactive means above about -30%;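 also: stimulus is agonist 54-4 at its EC80 concentration; % is scaled to controls: 0 for no effect and ±100 for the full control effect; compound concentration not given in the record; the text of the record puts the active cut at -80%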
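TRPML1-DL cells, Tet-induced overnight (~16 h, 37 °C) at 1,500 cells/well, were loaded with Ca8 no-wash dye plus quencher for 45-90 min at room temperature. Compounds were pinned during FDSS kinetic reading; agonist 54-4 at EC80 (4 uM final) then added.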
D2 agonist: Beta-Arrestin HTS for Positive Allosteric Modulators of the Human D2 Dopamine Receptor: Agonists. activation, % (no concentration beside the values). DiscoveRx PathHunter D2 beta-arrestin, luminescence, 90 min; 100% = 57 uM dopamine signal. D(2) dopamine receptor (Homo sapiens), P14416. 0.084% of 360,000 active; in the data active = activation above about 40%; inconclusive = about 15% to 40%; inactive = below about 15%; also: compound concentration not given in the record; the text of the record calls up to 30% inactive
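DiscoveRx PathHunter D2 beta-arrestin cells (2,100/well) attached overnight, then compound-stimulated 90 min at 37 C in HBSS/10 mM HEPES/0.1% Tween-20 buffer; beta-galactosidase complementation read by luminescence after 1 h at ambient temperature. Dopamine 57 uM final (EC100) as control.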
The depositor's hits bear a star; ? = inconclusive; . = not tested or not shown; [ ] = dose if it differs, or a comment. An unsorted share of the library; 1% or so of the library scored in one or more.

compound | CtBP-E1A blk | TRPML1 ag | PINK1 expr mod | Six1-Eya2 blk | TRPML1 inh | D2 agonist
CC1(OC(=O)C2CCCC2)C(=O)C=C2C=C(c3ccsc3)N(C3CCCCC3)C=C2C1=O (configuration not stated) | -25 | -0.1 | 1.2% | -21 | -10 | 0.7
CC(=O)N=c1c(C#N)cc2c(=O)n3ccccc3nc2n1CCCOC(C)C | -2 | 1.3 | 1.0% | 0 | -5 | -0.4
COc1cccc2c1O/C(=N\O)C(C(=O)Nc1cccc(Br)c1)C2 (configuration not stated) | 5 | -1.0 | 2.4% | 6 | -5 | 1.3
COc1cccc(N2CCN(Cc3ccsc3)CC2)c1 | -13 | 1.9 | -1.4% | -28 | 16 | 0.2
Oc1c(C(c2ccccc2)N2CCc3ccccc3C2)sc2ncnn12 (configuration not stated) | 3 | -0.1 | 4.1% | -1 | -7 | -3.4
Cc1ccc(S(=O)(=O)Oc2ccc(/C=N/NC(=O)c3nn(C)cc3[N+](=O)[O-])cc2)cc1 | 1 | 0.0 | -2.1% | -12 | 3 | 0.6
Cc1ccc(C(=O)NCC(=O)OCc2c(F)cccc2Cl)s1 | -1 | 3.3 | -0.2% | 6 | 17 | -5.0
Cn1c(N)c(C(=O)COC(=O)CCC(=O)c2ccc(F)cc2)c(=O)n(C)c1=O | -3 | -0.5 | -0.4% | -3 | 0 | -0.7
COC(=O)CN(c1ccc(C)cc1)S(=O)(=O)c1ccc2c(c1)n(C)c(=O)c(=O)n2C | 8 | -1.0 | -0.8% | -6 | 0 | 0.1
COc1cccc(NC(=O)C2CCCN(S(=O)(=O)c3cccc4cccnc34)C2)c1 (configuration not stated) | -9 | 1.4 | 1.0% | 0 | -9 | 0.8
CCCC(=O)n1nc(NCc2ccc(OC)cc2)nc1NCc1ccc(OC)cc1 | 5 | 1.0 | 3.6% | 8 | 6 | -4.4
COc1ccc(NC(=O)C2CC(c3ccccc3O)=NO2)cc1OC (configuration not stated) | -2 | 0.0 | 7.7% | -7 | -19 | -2.7
CC(=O)C1C(c2ccc(F)c(F)c2)NC(=O)NC1(O)C(F)(F)F (configuration not stated) | 5 | 0.0 | 3.4%[38.3 µM] | 4 | 4 | -2.2
COc1ccc(-c2cnnn2-c2ccc([N+](=O)[O-])cc2)cc1 | 2 | 0.7 | 4.1% | -2 | -16 | -1.6
CCCc1cc(=O)[nH]c(Nc2ccc(N3CCCCC3)cc2)n1 | -14 | 2.4 | 7.4% | -28 | 0 | -4.0
CCOc1ccc(S(=O)(=O)N2CCCCC2)cc1NC(=O)Cc1ccc(OC)cc1 | -2 | -0.8 | 0.3% | -9 | 4 | 3.6
O=C(NC1CC1)C1CCN(C(=O)c2ccc(Cl)cc2Cl)CC1 | 5 | 0.7 | -0.7% | -3 | 1 | -2.5
O=C(Nc1ccccc1N1CCCCC1)c1ccc(-c2cc(Cl)ccc2Cl)o1 | 5 | 0.7 | -1.3% | -1 | 10 | -4.7
CC(C)C[C@H](NC(=O)c1nc[nH]c1C(=O)NCc1ccccc1)C(=O)OCc1ccccc1 | -5 | 1.5 | 9.8% | -7 | -12 | -4.9
Cc1ccc(C(=O)Nc2nnc(-c3ccncc3)o2)cc1 | -22 | -0.2 | 3.3% | -23 | 19 | -0.5

Some of the entries above in a different format.
Under each structure: CtBP-E1A blk, TRPML1 ag, PINK1 expr mod, Six1-Eya2 blk, TRPML1 inh, D2 agonist
> CC(=O)N=c1c(C#N)cc2c(=O)n3ccccc3nc2n1CCCOC(C)C
  -2, 1.3, 1.0%, 0, -5, -0.4
> COc1cccc2c1O/C(=N\O)C(C(=O)Nc1cccc(Br)c1)C2 (configuration not stated)
  5, -1.0, 2.4%, 6, -5, 1.3
> COc1cccc(N2CCN(Cc3ccsc3)CC2)c1
  -13, 1.9, -1.4%, -28, 16, 0.2
> Oc1c(C(c2ccccc2)N2CCc3ccccc3C2)sc2ncnn12 (configuration not stated)
  3, -0.1, 4.1%, -1, -7, -3.4
> Cc1ccc(S(=O)(=O)Oc2ccc(/C=N/NC(=O)c3nn(C)cc3[N+](=O)[O-])cc2)cc1
  1, 0.0, -2.1%, -12, 3, 0.6

More compounds
compound | CtBP-E1A blk | TRPML1 ag | PINK1 expr mod | Six1-Eya2 blk | TRPML1 inh | D2 agonist
O=S(=O)(c1ccccc1)N1CCN(S(=O)(=O)c2ccc(F)cc2)CC1 | . | . | 3.3% | 2 | . | -3.8
COC(=O)c1ccc(COC(=O)CNS(=O)(=O)c2ccccc2)cc1 | 5 | 1.9 | -0.1% | 5 | -9 | 3.8
CCn1c(C)nc2cc(C(N)=O)ccc21 | . | 0.9 | -1.0% | 9 | 4 | 0.2
COCC1CCN(Cc2nc(Cc3ccccc3Cl)no2)CC1 | -5 | -0.3 | 0.5% | 9 | -17 | 0.5
CC(C)[C@H](NC(=O)c1ccccc1Cl)C(=O)OCC(=O)NCc1ccc2c(c1)OCO2 | . | -1.8 | -0.6% | 8 | 18 | -0.7
Cc1cc(C)nc(Nc2nc(C(N)Cc3ccc(F)cc3)cs2)n1 (configuration not stated) | ? | 0.2 | -0.3% | -15 | . | -3.7
O=C(Nc1nc2ccccc2n1Cc1ccc(Cl)cc1)c1ccco1 | 0 | -0.1 | ? | -6 | 9 | -1.5
Cc1cccc(C(=O)Nc2ccc3nc(SCC(=O)N4CCc5ccccc54)sc3c2)c1 | . | -0.3 | 0.1% | . | 8 | .
CSCCC(c1nnnn1-c1c(C)cccc1C)N1CCN(C/C=C/c2ccccc2)CC1 (configuration not stated) | -9 | 69* | 1.3% | -26 | . | -4.4
COc1ccc2c(c1)C(=O)N1[C@H]3c4cc(Cl)ccc4OC[C@@H]3[C@H](c3ccccc3)[C@]1(C)C(=O)N2 | -8 | 1.7 | 2.6% | -5 | -17 | 5.2
CCON1C(=O)C2(CCCCC2)C(=O)C12C=CCCC2 (configuration not stated) | 10 | 0.3 | -1.4% | 3 | 10 | 3.7
Cc1ccc(/C(N)=N/OC(=O)COc2cccc3ccccc23)cc1 | 8 | 0.0 | 1.8% | 7 | 2 | -1.7
CC(=O)NS(=O)(=O)c1ccc(NC(=O)c2ccc(S(=O)(=O)N3CCCC3)cc2)cc1 | 6 | -0.3 | 0.6% | 2 | 6 | 7.7
O=C(Nc1ccc(F)cc1)C(Cc1ccccc1)n1cccc1 (configuration not stated) | -13 | 2.5 | 1.5% | -9 | 6 | 4.0
CCOC(=O)CNC(=O)N1CCc2ccc(NC(=O)c3ccccc3OC)cc2C1 | -14 | -0.2 | 3.5% | 2 | -8 | 5.3
O=C(/C=C/c1ccccc1)NCCC1=CCCCC1 | 10 | 2.6 | 1.1% | 8 | -19 | -4.7
Cc1ccc(NC(=O)/C=C/c2ccc(Cl)cc2)nc1 | 8 | -0.8 | 7.2% | -3 | -1 | -0.6
COc1cccc(CNC(=O)c2cc3cc(C)ccc3n2C)c1 | . | -0.9 | -0.8% | . | -18 | .
CCC(Cn1nnc2ccccc2c1=O)NC(=O)Nc1cccc(Cl)c1 (configuration not stated) | . | 1.4 | -0.5% | . | 31 | .
CC(C)(C)c1ccc(C(=O)N2CCOC23CCCCC3)cc1 | 0 | 1.7 | 2.9% | 17 | . | 5.0

Reformatted: results already given.
O=C(Nc1ccccc1N1CCCCC1)c1ccc(-c2cc(Cl)ccc2Cl)o1
  CtBP-E1A blk = 5
  TRPML1 ag = 0.7
  PINK1 expr mod = -1.3%
  Six1-Eya2 blk = -1
  TRPML1 inh = 10
  D2 agonist = -4.7
CSCCC(c1nnnn1-c1c(C)cccc1C)N1CCN(C/C=C/c2ccccc2)CC1 (configuration not stated)
  CtBP-E1A blk = -9
  TRPML1 ag = 69*
  PINK1 expr mod = 1.3%
  Six1-Eya2 blk = -26
  TRPML1 inh = .
  D2 agonist = -4.4
O=C(Nc1ccc(F)cc1)C(Cc1ccccc1)n1cccc1 (configuration not stated)
  CtBP-E1A blk = -13
  TRPML1 ag = 2.5
  PINK1 expr mod = 1.5%
  Six1-Eya2 blk = -9
  TRPML1 inh = 6
  D2 agonist = 4.0

New compounds follow:
compound | CtBP-E1A blk | TRPML1 ag | PINK1 expr mod | Six1-Eya2 blk | TRPML1 inh | D2 agonist
COc1ccc(OC)c(CCNC(=O)CCCn2c(=O)c3cccn3c3ccccc32)c1 | . | 2.4 | -0.5% | . | 13 | .
CN(C(=O)c1cccc(NC(=O)Cc2ccc(NC(=O)C3CCN(C(=O)C4CC4)CC3)cc2)c1)C1CC1 | -2 | 3.2 | -0.9% | 3 | 0 | -2.0
O=C(NC(NC(=S)N1CCOCC1)C(Cl)(Cl)Cl)c1cccc2ccccc12 (configuration not stated) | 0 | 0.1 | 3.7% | 4 | 6 | -2.2
O=C(/C=C/c1ccco1)OCC(=O)N1CCCCC1 | 0 | 0.6 | -5.3% | 11 | -14 | -1.6
S=C(NCCc1ccccc1)NCCc1ccccc1 | 5 | 0.5 | -1.9% | 9 | -6 | -0.9
CCCCC(=O)OCC(=O)Nc1ccc(OC(F)F)cc1 | 3 | 2.7 | 1.0% | 4 | -1 | -1.5
CC(C)S(=O)(=O)c1csc(NC(=O)Nc2ccc(Cl)cc2)c1 | 4 | -0.2 | ? | -1 | 14 | 9.8
O=C(C1CCC1)N1CCC(O)(c2cccc(F)c2)CC1 | -8 | -0.6 | 1.7% | 3 | 38 | -7.5
CC1CN(S(=O)(=O)c2ccc(Cl)c(C(F)(F)F)c2)CC(C)O1 (configuration not stated) | 12 | 1.0 | ? | 1 | 1 | 1.6
CC(C)NC(=O)c1ccc(CONC(=O)OCc2ccccc2)cc1 | 3 | 0.0 | 0.5% | 2 | 26 | -2.1
O=C(Nc1nccs1)c1cc2cc(Cl)ccc2oc1=O | . | -0.3 | -0.1% | 22 | -5 | -0.8
O=C(NC(CO)C(O)c1ccc([N+](=O)[O-])cc1)C(Cl)Cl (configuration not stated) | 7 | -0.7 | 0.1% | 2 | 11 | 4.2
O=C(COC(=O)CCC(=O)c1ccc(Cl)cc1)NCC1CCCO1 (configuration not stated) | 1 | -0.8 | 1.5% | -3 | 1 | -3.1

From PubChem
